Source: PubChem
MT1-MMP reporter = inhibitors of MT1-MMP promoter transcription, cell-based, luciferase reporter, luminescence (AID 618) | calls from a first round at 10 µM; hits with a dose series show EC50 in µM | MT1-MMP promoter luciferase reporter cells, luminescence | 0.62% of 87,000 active;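 active means over half of the reporter light lost at 10 µM or EC50 under 50 µM; inactive means the rest and hits that failed the dose series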;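 further: actives suppress MT1-MMP promoter-driven transcription so potencies describe inhibitors; HT1080 fibrosarcoma cells; overnight exposure; toxic or luciferase-blocking compounds were not removed from the actives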
Hsc70 = Hsc70 inhibitors, probe displacement, primary screen, biochemical, fluorescence polarization (AID 568); Heat shock cognate 71 kDa protein (Homo sapiens); Hsc70 fluorescence polarization, probe displacement; higher % means a stronger effect; strong numbers were not always called active; displacement, % at 20 µM; hits with a dose series show IC50 in µM; 83,000 tested, under 10 active;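 active means displacement above 50% without optical interference and an IC50 on retest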;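 further: ATPase domain with a fluorescein-tagged ATP probe; 0% = vehicle and 100% = excess ADP; read after one hour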
WNV protease inh = inhibitors of WNV NS2B-NS3 protease, primary screen, biochemical, fluorogenic substrate | z-score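 (tested at a level between 10 and 100 µM)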 | 0.18% of 65,000 active | AID 577, 2007 | fluorogenic substrate Ex360/Em465; hits give low values;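 active means z-score at -3 or under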;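 further: score is relative to mean and spread of the compound wells of a plate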
Target sequence (P06935 1371-1501 limits assumed): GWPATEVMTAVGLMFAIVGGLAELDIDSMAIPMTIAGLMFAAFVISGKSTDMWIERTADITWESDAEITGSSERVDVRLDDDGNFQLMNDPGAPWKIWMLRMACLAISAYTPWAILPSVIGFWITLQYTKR
Target sequence (P06935 1502-1679 limits assumed): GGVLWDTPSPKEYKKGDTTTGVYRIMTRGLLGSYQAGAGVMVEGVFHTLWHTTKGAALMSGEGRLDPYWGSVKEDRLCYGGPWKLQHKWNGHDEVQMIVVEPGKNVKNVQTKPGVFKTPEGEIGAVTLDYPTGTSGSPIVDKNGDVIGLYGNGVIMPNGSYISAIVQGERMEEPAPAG
* marks the source's active call; other numbers are inactive results; i = inactive; / = no result given.

smiles,MT1-MMP reporter,Hsc70,WNV protease inh
COCCn1c(SCC(=O)Nc2ccc3c(c2)OCCO3)nc2c(c1=O)SC(C)C2 (stereo not given),i,-2.9%,1.2
COc1ccc2nc(C(C)O)[nH]c2c1 (stereo not given),i,-2.2%,/
Cn1c(SCC(=O)Nc2nccs2)nnc1C12CC3CC(CC(C3)C1)C2,i,2.3%,-0.63
O=C(Cc1ccc(Cl)cc1)NCC(=O)N1CCCC1,i,1.1%,0.09
CCN(CC)S(=O)(=O)c1ccc(NC(=O)CSc2nnc(-c3cccc(OC)c3)n2C)cc1,i,-0.2%,/
Cc1c(C(=O)N2CCN(c3ccccn3)CC2)sc2ncnc(N3CCN(c4ccccc4)CC3)c12,i,-14%,-0.44
COc1cc(C(=O)Nc2cc(C)c(OCC(=O)N3CCOCC3)c(C)c2)cc(OC)c1OC,i,-1.0%,-0.45
NC(=O)COc1ncn(-c2ccccc2)n1,i,-0.6%,/
COCCn1c(SCC(=O)Nc2ccc(Cl)cn2)nc2ccccc21,i,5.1%,/
CCCCNC(=O)c1sc(=S)n(-c2ccccc2OC)c1N,i,-3.8%,/
COc1ccc(C2CCCN2C(=O)Nc2cccc(C(C)=O)c2)cc1OC (stereo not given),i,-5.5%,0.42
CCN1CCN(C(c2cccs2)C(C)NC(=O)c2ccccc2OC)CC1 (stereo not given),i,0.7%,0.5

Reformatted with two lines to a compound: entries from further up
Each structure is followed by: MT1-MMP reporter	Hsc70	WNV protease inh
COCCn1c(SCC(=O)Nc2ccc3c(c2)OCCO3)nc2c(c1=O)SC(C)C2 (stereo not given)
→ i	-2.9%	1.2
COc1ccc2nc(C(C)O)[nH]c2c1 (stereo not given)
→ i	-2.2%	/
Cn1c(SCC(=O)Nc2nccs2)nnc1C12CC3CC(CC(C3)C1)C2
→ i	2.3%	-0.63
O=C(Cc1ccc(Cl)cc1)NCC(=O)N1CCCC1
→ i	1.1%	0.09
CCN(CC)S(=O)(=O)c1ccc(NC(=O)CSc2nnc(-c3cccc(OC)c3)n2C)cc1
→ i	-0.2%	/
Cc1c(C(=O)N2CCN(c3ccccn3)CC2)sc2ncnc(N3CCN(c4ccccc4)CC3)c12
→ i	-14%	-0.44
COc1cc(C(=O)Nc2cc(C)c(OCC(=O)N3CCOCC3)c(C)c2)cc(OC)c1OC
→ i	-1.0%	-0.45

Going on with the list:
smiles,MT1-MMP reporter,Hsc70,WNV protease inh
CCN1CCN(S(=O)(=O)c2ccc3c(c2)OCCO3)CC1,i,2.6%,/
Cc1c(Br)c(C(F)(F)F)nn1CC(=O)NCC1CCCO1 (stereo not given),i,-1.7%,1.1
Cc1csc(NC(=O)CSc2nc(C(C)C)nc3c2c(=O)n(C)c(=O)n3C)n1,i,3.3%,0.37
CC1CCN(S(=O)(=O)c2ccc(F)c(C(=O)O)c2)CC1,i,-2.8%,0.53
CCOCCCNC(=O)C1CCC(CNS(=O)(=O)c2cccc3nsnc23)CC1 (stereo not given),i,7.8%,-0.8
CC/C(O)=C(/C#N)c1nnc2n1CCCCC2,i,1.9%,-1
COc1ccccc1N1CCN(C(=O)c2cc(-c3ccc(Cl)cc3)on2)CC1,i,2.3%,0.63
COc1ccc(NC(=O)c2cc3c(=O)n(C)c4ccccc4c3n2C)cc1OC,i,2.0%,-0.49
COc1ccc(OC)c(NC=C2C(=O)OC3(CCCCC3)OC2=O)c1,i,3.1%,0.63
CCC(O)c1cc2c(cc1NC(=O)c1cccs1)OCCO2 (stereo not given),i,2.6%,-0.54
O=C(COC(=O)C1CCN(S(=O)(=O)c2cc([N+](=O)[O-])ccc2Cl)CC1)Nc1ncc(Cl)cc1Cl,i,-2.2%,/
Nn1cnnc1SC1CCCCC1NS(=O)(=O)c1ccccc1 (stereo not given),i,-9.0%,1
CCCN1C2=NCCN2c2cc(C)c(C)cc21,i,-1.0%,-0.12
O=C(Nc1cc(=O)c2ccccc2o1)N1CCOCC1,i,5.7%,-0.33
Cc1nc(NCc2ccco2)c2c3c(sc2n1)CCC3,i,7.7%,-0.03
CCOC(=O)C1CCCN(S(=O)(=O)c2ccc(OC)c3ccccc23)C1 (stereo not given),i,0.9%,-0.81
Cc1cc(C)nc(SCCn2c(N3CCC(C)CC3)nc3c2c(=O)n(C)c(=O)n3C)n1,i,-1.6%,-0.28
CCCc1cc(=O)n2[nH]c(-c3ccc(Br)cc3)cc2n1,i,1.5%,0.2
O=C(CN1CCN(S(=O)(=O)c2ccccc2)CC1)Nc1cccc(C(F)(F)F)c1,i,-6.8%,-0.36
COc1ccc(CN2CCN(S(=O)(=O)c3ccccc3)CC2)c(OC)c1,i,0.9%,-0.87
Cc1noc(/C=C/N(C)C)c1S(=O)(=O)N1CCN(c2ccccc2)CC1,i,1.6%,-0.21
CCC(=O)N1CCc2cc(S(=O)(=O)NCCC(=O)N3CCN(Cc4ccccc4)CC3)ccc21,i,-0.2%,-0.51
Cc1cccc(Cn2c(C(C)O)nc3ccccc32)c1 (stereo not given),i,-6.6%,-1
Cc1cc(C(=O)CSc2nnc(-c3cccnc3)n2-c2ccccc2F)c(C)n1CC1CCCO1 (stereo not given),i,-6.0%,/

Single records, as listed above. Screens in order: MT1-MMP reporter | Hsc70 | WNV protease inh
Cc1cc(C)nc(SCCn2c(N3CCC(C)CC3)nc3c2c(=O)n(C)c(=O)n3C)n1 in the list: i | -1.6% | -0.28
O=C(Nc1cc(=O)c2ccccc2o1)N1CCOCC1 in the list: i | 5.7% | -0.33

Other records follow.
smiles,MT1-MMP reporter,Hsc70,WNV protease inh
Cc1cccc(-c2nnc3n2N=C(c2ccccc2)CS3)c1,i,14%,0.52
Cc1cc2c(c(=O)n1CCc1ccccc1)C(C(C)C)C(C#N)=C(N)O2 (stereo not given),i,-0.8%,-0.18
CCOCC(=O)Nc1cc(-c2cn3cccnc3n2)ccc1C,i,-1.9%,1.6
Cc1cc(C(=O)CSc2n[nH]c(N)n2)c(C)n1-c1ccc(F)cc1,i,2.3%,/
O=C(NCc1ccccn1)c1coc(=O)c(Br)c1,i,-3.0%,0.03
CN(C)C(=O)CSc1nnc(-c2cnccn2)n1C,i,-0.4%,/
CCOC(=O)N1CCN(Cc2nc(N)nc(Nc3ccc(C)cc3)n2)CC1,i,6.1%,/
COc1ccc(-n2ncc3c(=O)n(CC(=O)N4c5ccccc5CC4C)cnc32)cc1 (stereo not given),i,-1.1%,/
Cc1cccc(NC(=O)CN(C)S(=O)(=O)c2cccc3cccnc23)c1,i,4.5%,-1.4
O=C(O)/C=C/c1ccc2ccccc2n1,i,2.3%,/
O=c1cc(CSc2nnc(COc3ccc(Cl)cc3)o2)c2ccccc2[nH]1,i,-0.2%,0.21
Cc1ccc(-n2c(O)cnc2Nc2nc(C)cc(C)n2)cc1,i,0.2%,0.21
Cn1c(CSc2nc3ccccc3s2)nnc1SCC(=O)NCc1cccnc1,i,9.1%,/
O=C(Nc1ccc(OC(=O)c2ccncc2)cc1)c1ccncc1,i,1.2%,-0.73
CCOC(=O)c1cc2c(=O)n3ccccc3nc2n(CCCOC)c1=NC(=O)c1cccnc1,i,4.5%,/
CCc1nnc(NC(=O)CSc2nnnn2C)s1,i,-1.1%,/
Cc1ccc(Cl)cc1NC(=O)CSC(N)=O,i,1.6%,/
CCOC(=O)c1ccc(CNC(=O)C(Cc2c[nH]c3ccccc23)NC(C)=O)o1 (stereo not given),i,-4.0%,0.14
CCCCNC(=O)C1CCCN1C(=O)Nc1ccccc1 (stereo not given),i,0.6%,/
CCN(CC)c1ccc(NC(=O)c2ccc(NC(=O)C3CCCO3)cc2)c(C)c1 (stereo not given),i,-4.8%,0.14
O=C(NCc1ccco1)C(c1ccc(F)cc1)N(Cc1cccnc1)C(=O)Cn1nnc2ccccc21 (stereo not given),i,6.9%,-0.92
CCOC(=O)c1c(C)[nH]c2ccc(O)cc12,i,0.1%,0.32
O=C(Nc1ccccc1N1CCOCC1)c1ccc2ccccc2n1,i,3.2%,-0.16
O=C(c1ccco1)N1CCN(S(=O)(=O)c2cccs2)CC1,i,-3.6%,0.23
CCOCCc1nnc(NC(=O)Cc2ccccc2)s1,i,7.0%,0.28
Cc1ccc(OCC(=O)Nc2ccc(-c3nnc(-c4ccco4)o3)cc2)cc1,i,-7.8%,-3.2*
Fc1ccc(-c2nnc3ccc(N4CCc5ccccc5C4)nn23)cc1,i,4.8%,-0.23
CC(=O)Cc1nsc(NC(=O)C2Cc3ccccc3C(=O)O2)n1 (stereo not given),i,-0.9%,-0.33
Cc1ccc(-n2c(Cc3cccn3C)nnc2SCC(=O)NC2CCCCC2)cc1,i,0.1%,-0.89
COc1ccc(-n2c(=O)c3ccccc3n(Cc3ccc(F)cc3)c2=O)cc1OC,i,0.7%,/
O=C(O)C1C2C=CC(C2)C1C(=O)NCc1ccoc1 (stereo not given),i,0.0%,-0.62
Cn1c(=O)c(-c2ccccc2)nc2ccccc21,i,0.4%,/
O=C(C1CC(=O)N(C2CCCC2)C1)N1CCC(Cc2ccccc2)CC1 (stereo not given),i,14%,1.4
COc1cc(NC(=O)c2ccc(Br)o2)ccc1NC(=O)C(C)C,i,0.9%,0.22
Cc1ccccc1NC(=O)NC1(C(=O)NCCCN2CCOCC2)CCCCC1,i,6.1%,/
COc1ccc(Cn2nnc3c(=O)[nH]c(C(=O)NCCc4ccc(F)cc4)nc32)cc1OC,i,4.1%,1.7
Cc1cc(-c2ccccc2)nc(Oc2ccc(C(C)(C)C)cc2)c1S(C)(=O)=O,i,-0.4%,/
CCC(C)NC(=O)N[C@@H](CCSC)C(=O)OC (stereo not given in full),i,1.2%,/
O=C(O)CCc1ncc(C(F)(F)F)cc1Cl,i,0.7%,/
O=C(NC1CCCC1)C1CCCN1C(=O)Nc1ccc(Cl)cc1 (stereo not given),i,-0.4%,0.53
CC(=O)N(C(C)=O)c1c(C#N)c(C)n(-c2ccccc2)c1C(=O)c1ccccc1,i,3.1%,0.67
Cc1cccc(C)c1NC(=O)CSc1nnc(-c2ccccc2)n1Cc1ccc2c(c1)OCO2,i,-3.1%,/
CCOC(=O)CCC(NC(=O)c1ccc(NCN2C(=O)c3ccccc3C2=O)cc1)C(=O)OCC (stereo not given),i,4.2%,0.69
Cc1oc(C(=O)O)cc1COc1ccccc1Cl,i,-4.2%,-1.7
CCCCCOC(=O)C1[C@H]2C(=O)N(Cc3cccs3)C[C@]23C=C[C@H]1O3 (stereo not given in full),i,0.9%,0.94
NS(=O)(=O)c1ccc(NC(=O)CSC2CCCCC2)cc1,i,-3.8%,-1.4
COc1ccc(N2C(=O)CN=C2Nc2nc(C)cc(C)n2)cc1,i,-7.2%,-0.33
C=CCN1C(=O)NC2(CCCCC2)C1=O,i,1.9%,-0.91
O=C(NCCc1ccc(Cl)cc1)c1ncn[nH]1,i,6.9%,1.4
CCOC(=O)CC1C(=O)NCCN1C(=O)c1c(F)cccc1F (stereo not given),i,4.0%,/
CS(=O)(=O)N1CCC(C(=O)Nc2ccc(OCc3ccccc3)cc2)CC1,i,1.1%,0.1
O=C(COCc1nc2ccccc2c(=O)[nH]1)NC1CCCC1,i,2.7%,-0.8
Cn1c(=O)c2c(nc(Br)n2CCCc2ccccc2)n(C)c1=O,i,1.4%,-0.46
Cc1nnc(SCC(=O)c2cc(C)n(-c3ccc4c(c3)OCO4)c2C)s1,i,3.3%,0.53
Cc1c(C(=O)NCCCN2CCOCC2)sc2nc(-c3ccccc3)cn12,i,-2.4%,-0.18
CN1CC=C2C(C#N)=C(N)C(C#N)(C#N)[C@H](c3cccs3)[C@H]2C1,i,19%,/
Cc1ccc2cc(CN(CCN3CCOCC3)C(=O)NCc3ccccc3)c(=O)[nH]c2c1C,i,1.0%,-0.88
CN(C)CCCOc1nc2c(c(=O)n(C)c(=O)n2C)n1C,i,6.0%,/
Cc1c(NC(=O)c2coc(=O)c(Br)c2)c(=O)n(-c2ccccc2)n1C,13µM*,16%,0.02
C=CCn1c(Cc2csc(N)n2)nnc1SCc1ccc(C(=O)OC)cc1,i,0.8%,0.91

(continued)
smiles,MT1-MMP reporter,Hsc70,WNV protease inh
Cc1ccc(CS(=O)(=O)CCC(=O)NCCCOC(C)C)cc1,i,4.1%,-0.82
CCN(CC)CCCNc1nc(-c2ccccc2)nc2ccccc12,i,-4.6%,/
COc1ccc(NS(=O)(=O)c2cc(C)ccc2OC)cc1OC,i,4.1%,-0.19
COC(=O)C1C(O)=CC(=O)CC1C (stereo not given),i,3.4%,/
O=S1(=O)CC(N2CCCCC2)C(N2CCCCC2)C1 (stereo not given),i,-5.6%,-0.95
COc1ccc(-c2csc3nc(C)n(-n4cccc4)c(=O)c23)cc1,i,2.9%,0.09
COC(=O)CC(=O)CSc1nc2c(cc1C#N)CCC2,i,2.1%,0.23
CN(C)S(=O)(=O)c1ccc(-c2cn3ccccc3n2)cc1,i,7.0%,/

These rows are one share of the data; the hit share may differ from the screen's.
